Ab BasE inh: BasE siderophore biosynthesis inhibition. purified BasE, fluorescence polarization binding displacement. inhibition, % (concentration not given with the values). 0.1% of 84,000 active;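 active means both replicates above 25% with normal brightness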;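 further: 0% = negative plate control signal and 100% = positive plate control signal; stock transfer was 100 nL into about 30 µL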
LANA-nucl inh: inhibitors of KSHV LANA binding to nucleosomes. 0.3% of 51,000 active. z-score (concentration not given with the values). AID 720717. FITC-LANA1-23 / chicken nucleosome fluorescence polarization; stronger effect = lower value;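 active means both repeat wells score below -2 in polarization z-score versus plate sample wells, excluding overly bright wells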;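 further: 100 nL library stock added to about 30 µL; numbers are from one replicate; some results filed as inactive read as strong as hits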
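Assay system: FITC-LANA peptide and chicken nucleosomes; input: 240 nM purified chicken nucleosomes (480 nM peptide binding sites), final; also added: 50 nM FITC-LANA1-23 probe; medium: TEN-BT buffer, pH 7.5; doses: pin-transferred compound, 100 nL; times: 10–45 min, room temperature; technique: fluorescence polarization; replication: duplicates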
An asterisk follows results filed as active; . = not tested or not shown; & = joins results of further samples. Only part of the results is shown. The share of hits here may be higher or lower than overall.

Values run as follows: Ab BasE inh, LANA-nucl inh
NC(=O)Nc1ccc(C(=O)OCC(=O)N(Cc2ccccc2)C2CCS(=O)(=O)C2)cc1 (stereo not given)
  1.9, .
O=C(CSc1n[nH]c(=O)[nH]c1=O)Nc1ccccc1C(=O)c1ccccc1
  38.4*, .
CCN=C1S/C(=C2\C(=O)N(C(C)=O)c3ccccc32)C(=O)N1CC
  1.2, 1.72
CCOc1ccc(-c2cc(C(=O)N3CCc4ccccc4C3)c3ccccc3n2)cc1
  1.3, .
CC(=O)Nc1ccc(SCc2csc(C)n2)cc1
  1.4, .
CCC(C)Oc1ccc(/C=C2/NC(=O)NC2=O)cc1Br (stereo not given)
  0.3, 0.436
O=C(NC1=NCCS1)C1c2ccccc2Oc2ccccc21
  -3.6, .
NC(=O)C1CCCN(C(=O)Nc2ccc(F)cc2)C1 (stereo not given)
  0.5, -0.346
CCN1/C(=C/c2ccc3ccccc3[n+]2CC)Sc2cc(NC(C)=O)ccc21
  -3.0, .
CCC1C(=O)N=C(SCC(=O)Nc2cccc3ccccc23)NC1=O (stereo not given)
  2.4, -1.89
CN(C)Cc1ncccc1O
  0.7, .
Cc1nn(-c2cccc(Cl)c2)nc1C(=O)N(C)CC(=O)NCc1ccco1
  0.8, .
O=C(CSc1nc(-c2ccccc2)c(-c2ccccc2)[nH]1)NCc1ccco1
  3.4, -1.19
Cc1ccc(-c2onc3ccc(C4(C)OCCO4)cc23)cc1
  -0.1, 0.83
O=C(c1cc2c(s1)CCC2)N1C(=O)c2ccccc2S1(=O)=O
  -0.5, .
Cc1c(Cl)cccc1N=C1SCC(=O)N1Cc1ccco1
  2.4, -0.173
CC1=CC(=C(C#N)C#N)C=C(C)N1Cc1cccnc1
  0.0, .
N#Cc1ccc(COC(=O)C2CCCCC2)cc1
  -0.2, .
O=CNCc1ccccc1OC(F)F
  2.6, .
COC(=O)c1ccc(COC(=O)C2CSC3(c4ccc(Br)cc4)CCC(=O)N23)o1 (stereo not given)
  -2.1, .
Cc1ccc(C)c(CSc2ncccc2C(=O)O)c1
  2.5, -0.021
CC(SC1=NCCS1)C(=O)Nc1nnc(-c2ccc(Cl)cc2)s1 (stereo not given)
  2.8, -0.0215
O=C(c1ccc(Cl)cc1)c1cnc2ccccn12
  ., 0.0835
Cc1ccc(C)c(OCCC(=O)N=c2sccn2C)c1
  0.9, .
CCNc1nc(NC(C)C)nc(OCCNC(=O)COc2ccc(Cl)cc2C)n1
  -0.5, -0.327
Cc1cnc(CC#N)s1
  0.2, .
NC(=O)COc1ccc(/C=N/NS(=O)(=O)c2ccccc2)cc1
  1.7, .
COc1ccc2[nH]cc(CCNC(=O)C3CC3)c2c1
  0.8, 0.408
O=C(CCCN1C(=O)c2ccccc2C1=O)Nc1ccccc1
  -0.2, .
Cc1ccc(F)cc1N1C(=O)COCC1=O
  2.8, .
CCOC(=O)CSC1=Nc2ccccc2C2=NC(CC(=O)NCc3ccc(OC)cc3)C(=O)N12 (stereo not given)
  -0.3, 1.41
N#Cc1ccc(/C=N/n2cnnc2)cc1
  0.4, .
O=C(CSc1ncn[nH]1)NCc1ccccc1
  4.3, -1.2
CCCCn1c(SCc2nnc(-c3cccs3)o2)nc2cc(S(N)(=O)=O)ccc21
  -3.8, .
Cc1c(C#N)c(N)nc(SCC(=O)c2cc3ccccc3oc2=O)c1C#N
  -4.3, 0.936
CCOc1ccc2c(C)c(Cl)c(=O)oc2c1C
  -1.9, 0.405
c1ccc(CSc2nc3ncccc3o2)cc1
  0.6, -0.106
CN1C(=O)C(CC(=O)NCC2CCCCC2)SC1=Nc1ccccc1 (stereo not given)
  0.0, 1.29
CN(CC(=O)Nc1ccc(F)cc1)C(=O)c1ccc2ccccc2n1
  0.7, .
Cc1ccc(NC(=S)N(CCc2ccccc2)Cc2ccccc2)cc1
  -0.8, .
COc1ccc(N2CCN(C(=O)COC(=O)Cn3c(C)csc3=O)CC2)cc1
  0.7, .
O=C(CN1C(=O)c2ccccc2S1(=O)=O)N1N=C(c2ccc(Cl)cc2)CC1c1ccco1 (stereo not given)
  2.6, .
Cc1nn(C2CCS(=O)(=O)C2)c2nc(C3CC3)cc(C(=O)O)c12 (stereo not given)
  0.4, .
COCCn1cnnc1SCC(=O)c1ccc(S(=O)(=O)N2CCCC2)cc1
  -0.2, .
CCOc1ccc(CC(=O)NN2CCOCC2)cc1OCC
  0.4, 1.34
CCOc1ccc(CN2CCN(C(=O)c3ccco3)CC2)cc1
  -1.4, -0.466
CCO/C(C)=N\Oc1cc(=O)oc2ccccc12
  2.6, -0.414
Cc1ccc2c(CN(C)Cc3ccccc3)cc(=O)oc2c1
  0.1, 0.504
CCCCc1ncc(/C=C(\Cc2cccs2)C(=O)O)n1Cc1ccc(C(=O)O)cc1
  ., 0.299
N#Cc1c(-c2ccco2)c2c([nH]c1=S)CCC2
  -0.2, .
O=C(Nc1ccccc1C(=O)NC1CCCCC1)c1ccco1
  4.0, .
O=C1c2ccccc2-c2nn(C(=O)c3cc4c(s3)CCC4)c3cccc1c23
  -1.8, .
O=C(c1ccccc1)c1c[nH]c(C(=O)NCCCn2ccnc2)c1
  ., -0.448
CCn1c(=O)cc(OCC(=O)N2CCN(c3ccccc3)CC2)c2ccccc21
  0.5, 0.39
Cc1csc(=O)n1CC(=O)O
  0.6, .
Oc1cccc(C=NCc2ccccc2)c1
  2.3, -0.482
CN1[C@@H](CC(=O)c2ccccc2)CCC[C@H]1C[C@H](O)c1ccccc1
  -1.8, -0.534&-0.275
COc1ccc(-c2c(C#N)nnn2-c2cc(C(F)(F)F)cc(C(F)(F)F)c2)cc1
  2.8, .
N#C/C(=C\c1ccc(-c2cc(C(F)(F)F)ccc2Cl)o1)C(=O)O
  0.2, .
COc1ccc(-c2nc3cccc(C)n3c2NC(C)(C)C)cc1O
  -2.2, -0.462

Going on with the list:
Values run as follows: Ab BasE inh, LANA-nucl inh
CC(O)c1nc2ccc(Oc3ccc4nc(C(C)O)[nH]c4c3)cc2[nH]1 (stereo not given)
  -0.6, 0.793
Cn1c2ccc(Br)cc2c2nnc(SCC(=O)N=C3NC(=O)CS3)nc21
  -0.5, .
Cc1ccc(C(c2c(O)ccc3ccccc23)N2CCOCC2)o1 (stereo not given)
  -2.4, .
S=c1sc2ccccc2n1CN1CCCCC1
  4.7, -0.598
CN(Cc1ccc(Br)s1)Cn1nnc(-c2ccccc2)n1
  0.9, .
CC1CN(/C(N)=N/S(=O)(=O)c2ccc(Cl)c(Cl)c2)CC(C)O1 (stereo not given)
  -2.6, .
O=c1[nH]c2sc3c(c2c2nc(-c4cc(-c5ccccc5)nn4-c4ccccc4)nn12)CCC3
  1.1, .
C1=C(CCNc2nn3nnnc3c3ccccc23)CCCC1
  -1.0, .
O=C(c1ccccc1)c1sc(Nc2ccc3c(c2)OCCO3)nc1-c1ccccc1
  0.2, .
Cn1cnnc1Sc1nc(CN2CCOCC2)nc2scc(-c3ccccc3)c12
  1.1, .
COc1ccc(CCn2c(SCC#N)nc3ccccc3c2=O)cc1OC
  -2.5, 0.664
Cc1ccc(-n2cc[nH]c(=O)c2=O)cc1
  1.7, -0.069
N#Cc1ccc(C(=O)NCCc2ccccn2)cc1
  1.6, .
O=C(Nc1ccc(S(=O)(=O)N2CCCCC2)cc1)c1ccc(F)cc1
  1.3, 0.057
c1ccc(-c2nc3ccccn3c2NC2CCCC2)nc1
  -1.4, 1.33
NC(=S)n1ncc(C(=O)O)c1NC(=O)c1ccccc1Cl
  -1.5, .
CCCn1c(C)cc(/C=C(\C#N)C(=O)N(C)Cc2ccc(Cl)c(Cl)c2)c1C
  -1.2, .
CCN(CC)CCCN1C(=O)C2C3C=CC(C3)C2C1=O (stereo not given)
  -0.2, 0.855
Cc1cc(-c2ccc(S(=O)(=O)NCCc3ccccc3)cc2)on1
  -0.2, -0.523
N#C/C(C(=S)Nc1ccccc1)=C1/NN=C(N2CCOCC2)N1c1ccccc1
  1.1, .
CN(C)c1ccc(/C=C/C=c2\sc3nc4ccccc4n3c2=O)cc1
  -8.6, -0.746
CNC(=O)COC(=O)c1c2c(nc3ccccc13)CCCC2
  -0.4, .
O=C(NC1CCCC1)C1c2ccccc2C(=O)N2CCc3ccccc3C12 (stereo not given)
  2.2, -0.439
CCN1C(=O)C(=Cc2cccn2-c2ccc(O)cc2)C(=O)N(CC)C1=S
  2.5, .
CSc1ccc(S(=O)(=O)NC2CC2)cc1
  1.2, 0.493
CC(C(=O)NN)n1nnc(-c2cc(C(F)(F)F)cc(C(F)(F)F)c2)n1 (stereo not given)
  3.4, -0.233
CCn1c(CNC(=O)CSc2nnc(C)n2-c2ccc(C)cc2)cc2ccccc21
  0.1, -0.398
COC(=O)c1cnn(-c2c(Cl)cccc2Cl)c1C=C(C#N)C#N
  3.5, -0.881
O=C(NCC(c1ccc[nH]1)C(F)(F)F)Nc1ccccc1 (stereo not given)
  1.6, .
Cn1cnnc1SCC(=O)c1ccccc1
  -1.0, 0.279
NC(N)=NCCN1CCCCCCC1
  1.0&2.5, -0.175&-0.565&0.11
CN(CC1COc2ccccc2O1)S(=O)(=O)c1csc(C(N)=O)c1 (stereo not given)
  -2.1, .
CCOc1ccc(CCCN)cc1OCC
  -2.1, -0.056
CCCCOC(=O)c1ccc(N2C(=O)CC(N3CCC(C(N)=O)CC3)C2=O)cc1 (stereo not given)
  -1.1, -0.095
N#CC1(NC(=O)CSc2nnnn2-c2ccc(OC(F)(F)F)cc2)CCCC1
  1.0, .
CCn1c(C)[n+](CC)c2ccc(S(=O)(=O)NC)cc21
  3.9, .
C[C@@]12O[C@@H](C[C@@]1(C)O)n1c3ccccc3c3c4c(c5c6ccccc6n2c5c31)CNC4=O
  ., 0.0105
O=C(Oc1ccc(Br)cc1F)C1CC(=O)N(c2ccc3c(c2)OCCO3)C1 (stereo not given)
  3.2, .
CC(C)CCn1c(=O)c2ccccc2n2c(CCC(=O)N3CCC(C(N)=O)CC3)nnc12
  -1.6, 0.903
CC(NC(=O)CN1CCc2ccccc2C1)c1ccccc1 (stereo not given)
  -0.4, .
CNS(=O)(=O)c1cccc(C(=O)OCC(=O)C(C)(C)C)c1
  1.1, .
CCCC1=C(C(=O)OCC)C(c2cccnc2)n2ncnc2N1 (stereo not given)
  -0.3, -0.162
COC(=O)c1c(C)nc(C)c(C(=O)OC)c1-c1csc(S(=O)(=O)Nc2ccc(OC)cc2)c1
  -1.0, .
COC(CNC(=S)Nc1ccccc1Cl)OC
  2.1, .
O=C(Nc1n[nH]c(=S)s1)c1ccccc1
  1.6, -0.303

Next section, starting with the last four of the part before.
Values run as follows: Ab BasE inh, LANA-nucl inh
CCCC1=C(C(=O)OCC)C(c2cccnc2)n2ncnc2N1 (stereo not given)
  -0.3, -0.162
COC(=O)c1c(C)nc(C)c(C(=O)OC)c1-c1csc(S(=O)(=O)Nc2ccc(OC)cc2)c1
  -1.0, .
COC(CNC(=S)Nc1ccccc1Cl)OC
  2.1, .
O=C(Nc1n[nH]c(=S)s1)c1ccccc1
  1.6, -0.303
Cc1nc(C2CCOC(C)(C)C2)cs1 (stereo not given)
  1.3, 0.699
COC(Cn1c(SCc2ccccc2)nnc1-c1cccc(S(=O)(=O)N(C)C)c1)OC
  -0.7, .
CC/C=C\C/C=C\C/C=C\C/C=C\C/C=C\CCCCCC(=O)O
  -4.6, 1.04
N#CCn1c(-c2cccs2)noc1=O
  -0.8, -0.147
O[C@H](CN1CCC2(CC1)OCCO2)C(F)(F)F
  ., 0.433
CCOC(=O)c1cc(CC)sc1NC(=O)C(C)C
  -1.1, 0.629
CC1(C)C(=O)Nc2ccccc2N1C(=O)COC(=O)COc1ccccc1
  1.0, .
CC(=O)Nc1ccc(N2C(=O)CC(N3CCCCC3C)C2=O)cc1 (stereo not given)
  3.1, -0.0435
Cc1ccccc1Nc1nnc(SC(C)C(=O)N(C)c2ccccc2)s1 (stereo not given)
  -3.1, .
Cc1ccc(S(=O)(=O)N(C)CC(=O)Nc2ccc(S(N)(=O)=O)cc2)cc1
  -3.2, .
O=C(CCn1nnc(-c2cccs2)n1)NC1CCCCC1
  0.7, -0.51
CCC(CC)NC(=O)c1cc2c(C)nn(Cc3ccccc3Cl)c2s1
  0.1, .
NC(=O)C1CCCCN1Cc1cc(Cl)c2ccccc2c1O (stereo not given)
  3.4, .
NS(=O)(=O)c1cc(C(=O)OCC(=O)N2CCCCC2)c(Cl)cc1Cl
  -1.2, .
O=c1ccc2c(C(F)(F)F)cc(C(F)(F)F)nc2[nH]1
  ., 0.783
CCc1cc2cc(C)cc(C)c2nc1SCC(=O)N1CCN(C(=O)c2ccco2)CC1
  1.2, -0.44

Random excerpt: 2 entries already listed, in no set order.
Values run as follows: Ab BasE inh, LANA-nucl inh
COC(Cn1c(SCc2ccccc2)nnc1-c1cccc(S(=O)(=O)N(C)C)c1)OC
  -0.7, .
NS(=O)(=O)c1cc(C(=O)OCC(=O)N2CCCCC2)c(Cl)cc1Cl
  -1.2, .

Assay outcomes as filed in PubChem BioAssay.
